NPYLR7 agonist – activates Aedes aegypti NPYLR7 receptor. HEK293T NPYLR7/Galpha15, GCaMP6s calcium fluorescence. activation, % at 10 µM. 270,000 tested, 0.15% active. AID 1259423; in the data active = activation above about 40%;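 note: 0% = vehicle and 100% = reference agonist at the receptor; some compounds past the cut are filed as inactive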
NPYLR7 agonist max-min – second read-out of NPYLR7 agonist, no call of its own (marks repeat the call); activation, %; measured here: Max-Min RFU normalised activation; some inactives read as strong as hits;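 span of the calcium signal over five minutes; 0% = vehicle and 100% = native peptide agonist; compound fluorescence can raise it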
* marks the source's active call; other numbers are inactive results; & = joins results of further samples. This is a subset (hit frequency here may not be typical).

item	SMILES	NPYLR7 agonist	NPYLR7 agonist max-min
1	Cc1noc(CCCC(=O)NCC(C)N2CC(C)OC(C)C2)n1 (stereo unspecified)	3	0
2	CCN(CC)C(=O)Oc1ccc2c(ccn2Cc2cccc(C#N)c2)c1-c1ccc(OC)c(OC)c1	14	20
3	CCC(C)n1c(C)cn2c3c(=O)[nH]c(=O)n(C)c3nc12 (stereo unspecified)	12	4
4	Cc1nc2ccc(CC(=O)NCC(=O)NC3CC3)cc2[nH]1	10	8
5	CCc1ccc(S(=O)(=O)Nc2ccc3c(c2)C(=O)Nc2cc(Cl)ccc2O3)s1	7	4
6	CCOC(=O)c1nn(-c2ccccc2Cl)c(=O)cc1OS(=O)(=O)c1cc(C)c(Cl)cc1C	-3	1
7	COCCN1C(=O)CC(N2CCN(S(=O)(=O)c3cccc(C(F)(F)F)c3)CC2)C1=O (stereo unspecified)	-6	-5
8	Cc1cc(=O)[nH]c(SC/C=C/c2ccccc2)n1	-7	-10
9	O=C(NC1CC1)C(Nc1cccc(N2CCOCC2)c1)c1ccccc1 (stereo unspecified)	0	2
10	COc1ccc(-n2nc(C(=O)NCc3ccco3)c(=O)n(Cc3ccc(F)cc3)c2=O)cc1	5	5
11	CN(Cc1ccc(C(C)(C)C)cc1)C(=O)NCCNC(=O)c1ccccc1	6	3
12	COCCNC(=O)C1(C)CCN1C1Cc2ccccc2C1 (stereo unspecified)	7	4
13	Cc1ccc(SC2(C(=O)NC3CCC(=O)NC3)CCCC2)cc1 (stereo unspecified)	6	4
14	O=C1O[C@@H]2CN(c3ncccc3Cl)C[C@@H]2N1CCCN1CCOCC1	34	15
15	COc1cc(C)ccc1C(=O)N1CCC(Cn2cc(C3CC3)nn2)CC1	2	0
16	C=CCNC(=O)C(C1CCCC1)N1CCN(C(=O)c2ccc3c(c2)OCO3)CC1 (stereo unspecified)	-22	-17
17	CSc1cccc(NC(=O)c2csc(C)n2)c1	-9	-15
18	CCOC(=O)c1nc(C(=O)OCC)c2c(C)nn(C)c2n1	4	1
19	CCN(CC)C(=O)[C@]1(c2ccccc2)C[C@@H]1CN	-2	-7
20	COC(=O)Cn1cc(CN2CCCC(Nc3ccc(OC)c(OC)c3)C2)c2ccccc21 (stereo unspecified)	24	15

Reprinted at random: 5 entries already listed.
item	SMILES	NPYLR7 agonist	NPYLR7 agonist max-min
6	CCOC(=O)c1nn(-c2ccccc2Cl)c(=O)cc1OS(=O)(=O)c1cc(C)c(Cl)cc1C	-3	1
20	COC(=O)Cn1cc(CN2CCCC(Nc3ccc(OC)c(OC)c3)C2)c2ccccc21 (stereo unspecified)	24	15
1	Cc1noc(CCCC(=O)NCC(C)N2CC(C)OC(C)C2)n1 (stereo unspecified)	3	0
4	Cc1nc2ccc(CC(=O)NCC(=O)NC3CC3)cc2[nH]1	10	8
14	O=C1O[C@@H]2CN(c3ncccc3Cl)C[C@@H]2N1CCCN1CCOCC1	34	15

Single records, as listed above:
CN(Cc1ccc(C(C)(C)C)cc1)C(=O)NCCNC(=O)c1ccccc1 is entered as NPYLR7 agonist: 6; NPYLR7 agonist max-min: 3
Cc1nc2ccc(CC(=O)NCC(=O)NC3CC3)cc2[nH]1 is entered as NPYLR7 agonist: 10; NPYLR7 agonist max-min: 8

Following part.
item	SMILES	NPYLR7 agonist	NPYLR7 agonist max-min
21	CC(C)CCCC(C)NC(=O)Cn1c(=O)c(=O)[nH]c2ccccc21 (stereo unspecified)	-2	-3
22	Cc1ccc(F)c(Oc2cc(N3CCN(C(=O)COc4ccccc4)C(C)C3)ncn2)c1 (stereo unspecified)	-10	-10
23	O=S(=O)(c1ccccc1Br)N1CCCC1c1nc2ccccc2s1 (stereo unspecified)	7	6
24	CCOc1ccc(C(=O)NCc2nnnn2-c2ccc(F)c(F)c2)cc1	0	-3
25	CCc1nc2ccc(C(=O)NCCN3CCNC3=O)cn2c1N(C)Cc1ccc(Cl)cc1	-4	35
26	Cc1ccc(S(=O)(=O)N(CC(=O)c2ccc(Cl)cc2)C(=O)N2CCN(C)CC2)cc1	9	8
27	COCCNC(=O)c1ccccc1N1CCC(NC(=O)C2CC2)CC1	9	14
28	CC(C)(C)OC(=O)NCCC(=O)N1CCSc2ccccc21	4	4
29	CCC(CC)(CNC(=O)OC(C)(C)C)NS(C)(=O)=O	3	4
30	C/C(=N\Nc1nc(-c2ccccc2)c2cc(C)ccc2n1)c1nc2ccccc2[nH]1	-7	-10
31	COc1cc(=O)n(-c2ccc(F)cc2)nc1C(=O)Nc1ccccc1C(N)=O	-6	-4
32	CC1CCC2(CC1)OCC(C(=O)NCc1cccnc1)N2C(=O)c1ccc(F)cc1F (stereo unspecified)	2	10
33	CC(C)NC(=O)N(Cc1cc(NC(=O)C2CCC2)ccc1N(C)C)C(C)C	-3	1
34	O=C(O)[C@H]1C[C@@H](C(=O)NC2CC2)CN(Cc2cc3c(cc2Cl)OCO3)C1	5	4
35	CN1C(=O)CCN(C(=O)C2CC2)CC(OCC(N)=O)c2ccccc21 (stereo unspecified)	2	5
36	CCC1CSC(Nc2ccc(C)cc2C)=N1 (stereo unspecified)	6	5
37	O=C(Nc1ccc(N2CCCCC2)c(C(=O)NCC2CCCO2)c1)c1cc(C(F)(F)F)cc(C(F)(F)F)c1 (stereo unspecified)	16	18
38	O=C(c1ccc[nH]c1=O)N(Cc1ccc(C(F)(F)F)cc1)C1CC1	0	-2
39	O=C(N1CCc2ccccc2C1c1ccc(F)cc1)C12CC3CC(CC(C3)C1)C2 (stereo unspecified)	21	11
40	CCc1ccc(S(=O)(=O)NCC2CN(c3ccc(OC)cc3)C(=O)O2)s1 (stereo unspecified)	4	5
41	Cc1cccc(-n2c(-c3ccccc3)nn(CN(C)C3CCS(=O)(=O)C3)c2=S)c1 (stereo unspecified)	-4	-3
42	Nc1nnc(SC(C(=O)N2CCCCC2)c2ccccc2)s1 (stereo unspecified)	6	3
43	O=C(NC1C=CS(=O)(=O)C1)c1nc(-c2ccccc2)cs1 (stereo unspecified)	-4	-12
44	CC(NC(=O)C/C=C/c1cccc(F)c1)C(O)Cc1ccccc1 (stereo unspecified)	1	1
45	O=C(C1CCN(S(=O)(=O)c2ccc3ccccc3c2)CC1)N1CCC1	2	1
46	CCOC(=O)NC(Nn1cnnc1)(C(F)(F)F)C(F)(F)F	-5	-2
47	COCCCNC(=O)c1sc2cc(F)ccc2c1Cl	-5	-15
48	CCn1nc(CC(C)C)cc1C(=O)N1CCNCC1C(=O)NC1CC1 (stereo unspecified)	-2	-5
49	CCOCCOC1CCCN(C(=O)c2ccc(F)cc2)C1 (stereo unspecified)	-6	0
50	CCOC(=O)c1nc[nH]c1C	6	5
51	C=CCOC(=O)C1=C(C)NC2=C(C(=O)CCC2)C1c1cc(OC)c(OC)c(OC)c1 (stereo unspecified)	3	-3
52	C=CCSc1nc(C)c2ccccc2n1	3	0
53	Brc1ccccc1C=Nc1ccc2c(c1)OCO2	8&-7	5&-11
54	CS(=O)(=O)Oc1ccc([N+](=O)[O-])cc1-c1nc2ccccc2o1	13	13
55	CCOC(=O)c1c(NC(=O)CCl)sc(Cl)c1-c1ccccc1	-2	-5
56	CC(Cn1ccnc1)NC(=O)C1(C)CC1(Cl)Cl (stereo unspecified)	5	2
57	Cc1cc(N2CCCC(OC(=O)c3cc(C#N)cn3C)C2)nc(C)n1 (stereo unspecified)	8	4
58	O=C(N=C1N=C2C=CC(Br)=CN2Cc2ccccc21)C(c1ccccc1)c1ccccc1	-4	-9
59	COc1ccccc1NC(=O)NCC(=O)N1CCC2(CC1)Nc1ccccc1S(=O)(=O)N2	0	13
60	O=C(NCCCC(=O)N1CCOC(COc2ccc(F)cc2)C1)OCc1ccccc1 (stereo unspecified)	1	-2
61	Cc1cccc(C)c1NC(=O)CN1CCN(Cn2nc(C)c3c(C)onc3c2=O)CC1	11	8
62	CC(C)N=c1ccc(C#N)cn1C(=O)C1CC(=O)N(c2ccccc2Cl)C1 (stereo unspecified)	-2	-3
63	COc1ccc2c(c1)SC(C)C(=O)N2Cc1ccc2ccccc2c1 (stereo unspecified)	7	2
64	CCCCc1ncc(-c2nccn2C(C)c2nccs2)[nH]1 (stereo unspecified)	16	4
65	S=C(NCC1CCCO1)NNc1c(Cl)cc(Cl)cc1Cl (stereo unspecified)	7	3
66	N#CC1(c2ccccc2)CCN(C(=O)C2CC=CCC2C(=O)N[C@H](CO)Cc2ccccc2)CC1 (stereo partly specified)	-4	-8
67	O=C(CC1C=CCC1)N1CCN(S(=O)(=O)c2c(Cl)cccc2Cl)CC1 (stereo unspecified)	-4	-5
68	O=C(O)Cn1cccn1	9	14
69	Cc1ccccc1CO[C@]1(C(=O)NCCN2CCOCC2)CC(OCc2ccc(C(F)(F)F)cc2)[C@@H]2OC(C)(C)O[C@@H]2C1 (stereo partly specified)	24	18
70	O=C(NN1CCCC1)c1ccc(COC(CCN2CCOCC2)c2cccs2)cc1 (stereo unspecified)	2	-1
71	COc1ccc(C(NC(C)=O)C2CCCc3ccccc3C2=O)cc1 (stereo unspecified)	3	4
72	CC(=O)Nc1ccc(-c2ccc(S(=O)(=O)N(C)CC(=O)N(C)C)cc2)cc1	-2	-5
73	CN(Cc1ccccc1)S(=O)(=O)N1C[C@H]2CC=CC[C@H]2C1	2	1
74	CCCc1ncc(CN2CCC(C(=O)Nc3cccc(-c4cccc(OC)c4)c3)CC2)cn1	0	-1
75	O=c1[nH]c2ccc(S(=O)(=O)Nc3ccccc3Oc3ccccc3Cl)cc2o1	13	12
76	O=C(Cn1nc(C(F)(F)F)c2c1CCCC2)NC1CCCC1	0	-3
77	CCCCCCn1c(CN2CCN(CCO)CC2)nc2c1c(=O)n(C)c(=O)n2C	-1	0
78	CC(C)CN(CC(=O)N(CCc1c[nH]c2ccccc12)Cc1ccccc1)C(=O)Cc1ccc(F)cc1	14	23
79	O=C(CCc1nnc(Cc2cccc(C(F)(F)F)c2)o1)NCCc1ccco1	1	-2
80	Cc1cc(C)n(-c2cc(NCCNC(=O)c3ccccc3)ncn2)n1	-6	-13

Screen by screen, as entered above:
Compounds 68–76 in NPYLR7 agonist read 9, 24, 2, 3, -2, 2, 0, 13, 0
Compounds 68–76 in NPYLR7 agonist max-min read 14, 18, -1, 4, -5, 1, -1, 12, -3

(next part)
item	SMILES	NPYLR7 agonist	NPYLR7 agonist max-min
81	COc1cc(NC(=O)CCC2CCCN(C3CCSCC3)C2)cc(OC)c1 (stereo unspecified)	7	5
82	CCc1nc2ccc(C(=O)Nc3ccc(NC(C)=O)cc3)cn2c1N(C)C(=O)c1ccncc1	19	17
83	Cc1nnc(NC(=O)c2cccs2)s1	-1	-2
84	CNCCc1ccccn1	0&-7	-7&-14
85	C=CCc1ccc2ccccc2c1OCCN(C)C	-5	1
86	Oc1ccccc1Nc1nc2ccccc2n2cnnc12	4	1
87	Cc1ccc2nc(C(C)Nc3nc(C)nc4c3cnn4C)[nH]c2c1 (stereo unspecified)	1	1
88	O=C(COc1coc(CN2CCN(c3ccccc3)CC2)cc1=O)NC1CCCCC1	0	-2
89	CC(C)(C)CC(=O)NC1CCN(c2ccccc2C(=O)NC2CC2)CC1	0	4
90	O=[N+]([O-])c1ccc(Cl)cc1NN=C1CCCCC1	-4	-5
91	CSC1=NCCN1C(=O)c1ccc(OC(C)C)cc1	-3	-5
92	Cn1c(=O)[nH]c(=O)c2c1nc(N1CCN(Cc3cccc(Cl)c3)CC1)n2Cc1ccc(Cl)cc1	2	2
93	CCOC(=O)c1nnc2n(c1=O)CCN2c1ccc(OC)cc1	-3	0
94	COCCn1c(SCc2coc(-c3ccccc3)n2)nc2ccccc2c1=O	25	11
95	C=CCN1CC(c2nc3ccccc3n2Cc2ccc(F)cc2)CC1=O (stereo unspecified)	-1	13
96	CCc1ccccc1NC(=O)CCNC(=O)c1cc(NC(C)=O)ccc1Cl	5	5
97	Cc1nc(Cl)cc(NC2CC(=O)N(C(C)C)C2=O)n1 (stereo unspecified)	-9	-9
98	Cc1nn(CCC#N)c(C)c1CCC(=O)N1CCCC1c1ccc(Cl)cc1 (stereo unspecified)	1	-3
99	O=C(NCCc1cccc(F)c1F)N1CCN(c2ccccn2)CC1	1	-2
100	Cc1ccc(-n2c3c(c(=S)[nH]c2=O)CCC3)cc1C	2	2
101	Cc1cccc(-c2noc(N3CCOCC3)c2CN(CC2CC2)C(=O)c2ccco2)c1	-12	-5
102	CCSc1nnc(NC(=O)CN2C(=O)NC3(CC(C)CC(C)(C)C3)C2=O)s1 (stereo unspecified)	2	6
103	CCOc1ccc(-n2c(C)cn3c4c(=O)n(CCCO)c(=O)n(C)c4nc23)cc1	-6	-9
104	COc1ccc(NC(=O)c2sc(=O)n(Cc3cccc(F)c3)c2C)cc1	-7	-8
105	COc1ccc(S(=O)(=O)N2CCOCC2)cc1N1CCN(C(=O)/C=C/c2ccccc2Cl)CC1	21	26
106	O=C(c1cc(-c2ccccc2)nn1-c1ccc(Cl)cc1)N1CCN(c2cccc(C(F)(F)F)c2)CC1	-3	8
107	COCC1(c2nc(CN3CCN(C)CC3)no2)CCC1	2	-4
108	O=C(/C=C/c1ccc(Br)o1)N1CCN(c2ccccn2)CC1	9	3
109	CCN(CC)S(=O)(=O)c1ccc2[nH]c(=O)cc(C(=O)Nc3ccc(F)c(F)c3)c2c1	0	0
110	COc1ccc(S(=O)(=O)N(CCN2CCOCC2)CC(=O)N(CCc2ccc(OC)c(OC)c2)Cc2ccco2)cc1	13	18
111	O=C(NC1CC1)C1CCN(Cn2ccc(-c3ccc(F)cc3)n2)CC1	-1	-2

Source: PubChem (Fisher Drug Discovery Resource Center)
